# Assay outcomes from PubChem.
# HSD17B inh = blocks hydroxysteroid 17-beta dehydrogenase activity. Potency, µM (titrated, usually from 57.1 µM), for the others: at the top dose activity change, negative = inhibition, usual class: inhibitors. hit rate 7.6% among 75,000. recombinant HSD17B10, NADH fluorescence kinetic; many of its hits are not listed in these tables. Q99714; active means well fitted inhibition curve with a large enough effect; inconclusive means small, poorly fitted or top-dose-only effect; inactive means no such curve, though single readings can be large or run the other way;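 further: the protocol describes HADH2 (HSD17B10) and not the HSD17B4 of the title; nearly all actives have a fitted effect of over 70% in size; most hits overshoot -100% by far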
#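 Activity followed as NADH fluorescence increase (ex 360, em 450 nm) every 30 seconds for 4 min, using final 90 uM beta-hydroxybutyryl CoA and 1 mM NAD+. Recombinant His-tagged enzyme, 20 nM, pH 9.0 Tris buffer, 15 min compound preincubation.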
# Numbers without * were called inactive; ? = inconclusive; [ ] = another dose, or the depositor's remark. On the % scale 0 is the no-effect control and ±100 the full control effect; potency means the concentration at half of the fitted maximal effect. An excerpt (hit frequency here may not be typical).
SMILES,HSD17B inh
O=C(CC1SC(=Nc2ccccc2)N(CCCCO)C1=O)NCc1ccccc1 (stereo unspecified),3%
Cc1nnc2n1N=CC=C(c1ccccc1)S2,3%
CN(C)c1ccc(C(=O)Nc2nc3c(s2)CCCC3)cc1,?
CCCCCOC(=O)CSc1nc2c(c(=O)[nH]c(=O)n2C)n1Cc1ccc(Cl)cc1,-2%
CCOC(=O)c1sc(NC(=O)C2CCCO2)c(C(=O)OC)c1C (stereo unspecified),1%
Cc1ccc(S(=O)(=O)N2CCC(C(=O)Nc3nnc(COc4ccccc4)s3)CC2)cc1,-5%
C[C@@H](CNC1CCCCC1)OC(=O)c1ccccc1,8%[25.6 µM]
COc1ccc(OC)c(NC(=O)c2ccc(CN3CCOCC3)cc2)c1,-1%
COc1ccc(NC(=O)CSc2nnc(-c3ccncc3)n2CC2CCCO2)c(OC)c1 (stereo unspecified),0%
Cn1ccnc1Sc1nc(Nc2cccc(Cl)c2)nc(N2CCOCC2)n1,0%
O=C(Nc1nccs1)C1CCCN1S(=O)(=O)c1ccc(F)cc1 (stereo unspecified),-8%
Cc1cc(C)n2nc(C(=O)OCC(=O)Nc3ccc4c(c3)OCO4)nc2n1,10%
c1ccc2c3nnc4n(c-3nc2c1)CCCS4,-5%
COc1cc(N)c(Cl)cc1C(=O)NC1CCN(Cc2ccccc2)CC1,-1%
O=C(CCC(=O)c1cccs1)OCC(=O)c1ccc(Cl)s1,-1%
COc1ncc2nc(C)c(=O)n(C3CC3)c2n1,?
O=C(NC1CCCc2ccccc21)C1CCN(S(=O)(=O)c2cnc[nH]2)CC1 (stereo unspecified),-1%
O=C(O)CCSCC(=O)Nc1c(C(=O)C2CC2)oc2ccccc12,-14%
COc1ccc(CCNC(=O)Cc2nn(C)c(=O)c3ccccc23)cc1OC,9%
Cc1nnc(SCC(=O)NC(C)c2ccccc2)[nH]c1=O (stereo unspecified),-6%
CCCOc1ccc2oc(=O)c3c(c2c1)CCCN3C(=O)CN(C)Cc1ccccc1,-20%
COc1ccccc1N(CC(=O)NCc1ccccn1)S(C)(=O)=O,-1%
COC(=O)[C@@H]1C[C@@]2(O)[C@H](O)[C@H](O)[C@H](O)C[C@H]2N1CC1CCCCC1,6%
O=c1[nH]c2cc(C(F)(F)F)ccc2n1-c1cc(C(F)(F)F)ccc1O,-4%
COc1ccc(-c2[nH]ncc2-c2ccc3c(c2)OCCO3)c(O)c1,-14%
CCOC(=O)CNC(=O)Cn1cnc2sc(C)c(S(=O)(=O)N3CCC(C)CC3)c2c1=O,2%
O=C(CSc1nnnn1Cc1ccccc1)N1CCN(c2ccccc2)CC1,0%
Cc1cccc(-c2nc3ccccc3c3nncn23)c1,-3%
CC(=O)Nc1ccc(NS(=O)(=O)c2cc(C)sc2C)cc1,12%
CCCCc1c(O)c2ccccc2[nH]c1=O,20µM*
Cc1ccc(O)c(-c2cc3ccccc3[nH]2)c1,16µM*
COc1ccc(Nc2cc(C)nc3ncnn23)c(OC)c1,-2%
Cc1cc(C)cc(NC(=O)Cn2ncn3c(cc4ccccc43)c2=O)c1,?
CN1CC(=O)NC1=NC(=O)C12CC3CC(CC(C3)C1)C2,14%
O=C(CSc1nnc(CNC(=O)c2cccs2)o1)c1ccc(Cl)cc1,1%
COC(=O)c1ccc(Cl)c(NC(=O)CN2CCOCC2)c1,2%
Cn1c(SCC(=O)NCc2ccc3c(c2)OCO3)nnc1-c1cccs1,-2%
CCOc1ccc(NC(=O)CSc2nc3cccnc3n2CCOC)cc1,-2%
Cc1ccccc1-c1cncnc1NC1CCNCC1,0%
COC(=O)[C@H](CCSC)NC(=O)Nc1ccc(C(C)C)cc1,13%
c1ccc2c(c1)OCC(CNc1ncnc3nc[nH]c13)O2 (stereo unspecified),14%
CC(=Nc1ccc(O)cc1)c1sc2ccccc2c1O,-13%
COc1ccccc1-c1nnc2n1N=C(C(C)(C)C)CS2,15%
O=C(O)C1CC(c2ccccc2F)=NO1 (stereo unspecified),-6%
C=CCn1c(Sc2nnc(C)s2)nc2c1c(=O)[nH]c(=O)n2C,1%

# Seven entries out of the list, sorted by formula weight, falling.
SMILES,HSD17B inh
CCCOc1ccc2oc(=O)c3c(c2c1)CCCN3C(=O)CN(C)Cc1ccccc1,-20%
Cn1ccnc1Sc1nc(Nc2cccc(Cl)c2)nc(N2CCOCC2)n1,0%
CCOc1ccc(NC(=O)CSc2nc3cccnc3n2CCOC)cc1,-2%
COc1ccc(OC)c(NC(=O)c2ccc(CN3CCOCC3)cc2)c1,-1%
O=C(O)CCSCC(=O)Nc1c(C(=O)C2CC2)oc2ccccc12,-14%
CC(=O)Nc1ccc(NS(=O)(=O)c2cc(C)sc2C)cc1,12%
C[C@@H](CNC1CCCCC1)OC(=O)c1ccccc1,8%[25.6 µM]

# Following part:
SMILES,HSD17B inh
CCC(=O)O[C@@H]1[C@H](C)O[C@H](O[C@H]2[C@@H](N(C)C)[C@H](O)[C@@H](O[C@@H]3[C@@H](CC=O)C[C@@H](C)[C@@H](O)/C=C\C=C/C[C@@H](C)OC(=O)C[C@@H](OC(=O)CC)[C@H]3OC)O[C@H]2C)C[C@]1(C)O,7%[25.6 µM]
Cn1c(=O)oc2cc(S(=O)(=O)N3CCOCC3)ccc21,11%
CN1C(=O)CC(N2CCC(c3nc4ccccc4s3)CC2)C1=O (stereo unspecified),-11%
CCn1c(SCc2nc3ccccc3s2)nnc1-c1cccs1,-8%
COc1ccccc1N1CCN(C(=O)c2nn(-c3ccccc3OC)c(=O)c3ccccc23)CC1,-3%
COC(=O)c1c(C(=O)OC)c2ccncn2c1Cl,?
O=C1N(S(=O)(=O)c2ccccc2F)C(=O)C2(CCCC2)N1S(=O)(=O)c1ccccc1F,-4%
Cn1c(NC(=O)c2ccc(C(C)(C)C)cc2)cc(=O)n(C)c1=O,11%
Cc1cccc(NC(=O)C2CCCN2S(=O)(=O)c2cccc3cccnc23)c1 (stereo unspecified),-2%
Cn1c(Cn2nnc3ccccc32)nnc1SCC(=O)N1c2ccccc2CCc2ccccc21,11%
COC(=O)c1[nH]c2ccc(C)cc2c1NC(=O)Nc1ccccc1OC,337%[activator]
O=C1C(C=NCCCn2ccnc2)=C(O)c2ccccc21,-2%
CCOC(=O)c1c(NC(=O)OC)sc(C(=O)N(C)C)c1C,-12%
CO[C@H]1COC(=O)[C@H](C)NC(=O)C/C=C\[C@@H](C)[C@@H](NS(=O)(=O)c2ccc(C)cc2)COC(=O)[C@H](OCc2ccccc2)/C=C\[C@@H]1C,3%[11.4 µM]
Cc1ccccc1CS(=O)(=O)CCC(=O)NCCCN1CCN(c2ccccc2F)CC1,-2%
Cn1c(N2CCN(C(=O)Nc3ccc(C(F)(F)F)cc3)CC2)nc2ccccc21,14%
CC(=O)N1CCN(S(=O)(=O)c2ccc(C)cc2)C1c1ccc(N(C)C)cc1 (stereo unspecified),-7%
O=C(CCCn1c(=O)c2ccccc2n(CC(=O)NCc2ccco2)c1=O)NCc1ccco1,-4%
CC(C)c1ccc(N2CC(C(=O)Nc3nccs3)CC2=O)cc1 (stereo unspecified),10%
COc1ccccc1NC(=O)N(Cc1ccc2c(c1)OCO2)Cc1nc2ccccc2c(=O)[nH]1,3%
O=C(NCC1CCCO1)C(C(=O)c1ccccc1)n1cc(Cl)ccc1=O (stereo unspecified),0%
CCOC(=O)Nc1ccc(OC)cc1S(=O)(=O)N1CCCCC1,1%
CCOc1cc(C)c(C(C)C)cc1S(=O)(=O)NCc1ccccn1,5%
CCn1c(SCC(=O)Nc2ccc(C(=O)OC)cc2)nnc1-c1cccs1,-12%
O=C(CSc1nc2ccccc2[nH]1)c1cccs1,-15%
CCSc1nc(-c2cccs2)nc2c1c(=O)n(C)c(=O)n2C,16%
O=C(CN1CCCCCC1)Nc1ccc(F)c(F)c1F,7%
Cc1ccnc(SCC(=O)N2CCC(C(N)=O)CC2)n1,11%
Fc1ccccc1N1CCN(C(c2ccncc2)c2nnnn2C2CCCC2)CC1 (stereo unspecified),-11%
C#CCCCO/N=C1/[C@H]2O[C@@H]2[C@@H](O)[C@H]2[C@H]1CCn1c(=O)n([C@@H](CC)c3ccccc3)c(=O)n12,3%[11.4 µM]
Cc1ccc(S(=O)(=O)N2CCN(Cc3cc(C(C)C)ccc3O)CC2)cc1,-5%
O=C(COc1ccc(S(=O)(=O)NC2CCCCC2)cc1Cl)NCc1cccnc1,-16%
Cc1ccccc1-n1ncc2c(SCC(=O)NCc3cccs3)ncnc21,-22%
O=C(c1ccco1)c1cn(CC(=O)N2CCCc3ccccc32)c2ccccc12,-22%
Cc1ccc(C(=O)Nc2nnc(-c3cccs3)s2)cc1C,25µM*
CC(C)(C)c1cc(/C=C(\C#N)C(N)=S)cc(C(C)(C)C)c1O,?
C1=C(C(c2nnnn2C2CCCCC2)N2CCCCC2)COc2ccccc21 (stereo unspecified),-4%
Cc1nc(N2CCN(c3ccccc3)CC2)[nH]c(=O)c1Cc1cccc2ccccc12,11%
Cn1cccc1C(=O)N1CCC2(CCCN(c3ccncc3)C2)CC1,-8%
CCN(CC)C(=O)CSc1nnc(-c2cccs2)n1Cc1ccco1,5%
O=C(CSc1nnc(CNC(=O)c2ccco2)o1)NC1CCCC1,6%
COC(=O)CC(=O)CSc1nc2c(cc1C#N)CCCCC2,25µM*
Cc1ccc2[nH]c(=O)c(C(c3nnnn3CCc3ccccc3)N3CCOCC3)cc2c1 (stereo unspecified),?
O=S(=O)(Cc1ccccc1)N1CCc2ccccc2C1,6%
CCn1c(-c2ccc(C(C)(C)C)cc2)n[nH]c1=S,32µM*
CCn1c(=O)cc(OCC(=O)N2CCCCCC2)c2ccccc21,-3%
NC(=O)c1ccc(-n2nnnc2SCc2ccc(F)cc2)cc1,2%
Cc1nc(N2CCC(C)CC2)c2c(C)c(C(=O)O)sc2n1,-5%
CCOC(=O)Cc1csc(NC(=O)C(C)(C)C)n1,2%
Cc1cc(C)nc(SCc2nnc(SCC(=O)NCc3ccco3)n2-c2ccccc2)n1,-29%
COc1ccc(NC(=O)N2CC3(CCN(C(=O)c4csnn4)CC3)C2)cc1,6%
O=C(Cn1c(=S)nc2ccccn21)N1CCc2ccccc2C1,?
COc1cccc(NC(=O)Cc2c(O)c3ccccc3[nH]c2=O)c1,32µM*
Clc1ccccc1OCc1nc(-c2ccncc2)no1,-16%
Cc1ccc(CCNC(=O)C2CCCN(S(=O)(=O)c3c(C)noc3C)C2)cc1 (stereo unspecified),5%
CSc1ccccc1NC(=O)c1ccoc1C,-17%
CCCc1cc(=O)n2[nH]c(C)cc2n1,25µM*
COc1cccc2cc(C(=O)OC3CCN(C)CC3)c(=O)oc12,-13%
COC(=O)CNc1nc(C2CC2)nc2c1nnn2Cc1ccccc1Cl,5%
O=C(CNC(=O)c1ccco1)OCN1C(=O)c2ccccc2C1=O,-1%

# 3 of the compounds above, as labelled records:
> Cc1ccc(C(=O)Nc2nnc(-c3cccs3)s2)cc1C
- HSD17B inh = 25µM*

> CCN(CC)C(=O)CSc1nnc(-c2cccs2)n1Cc1ccco1
- HSD17B inh = 5%

> Fc1ccccc1N1CCN(C(c2ccncc2)c2nnnn2C2CCCC2)CC1 (stereo unspecified)
- HSD17B inh = -11%

# Next section
SMILES,HSD17B inh
COc1ccc(C2CC(=O)c3cnc(NC(=O)c4cc(OC)cc(OC)c4)nc3C2)cc1 (stereo unspecified),-25%
COc1ccc(-c2noc(CN(C(=O)c3c(-c4ccccc4Cl)noc3C)C(C)C)n2)cc1,-17%
O=C(CSc1cn(CCNC(=O)c2cccs2)c2ccccc12)NCC1CCCO1 (stereo unspecified),-6%
CC1CCN(C(=O)CCc2nc3cc(S(=O)(=O)N(C)C)ccc3n2C)CC1,2%
C=C1C2CC[C@@]3(C)C(c4ccoc4)OC(=O)C[C@@]13OC1CC(OC(C)=O)C(C)(C)C(CC(=O)OC)[C@@]12C (stereo partly specified),4%
C=CCOCC/C=C1/c2ccccc2C(OC)C1C (stereo unspecified),2%[11.4 µM]
COc1cc(C(=O)OCCN2CCOCC2)ccc1O,-4%
O=C(CN1C(=O)COCC1=O)N1CCOCC1,9%
CCOC(=O)N1CCC(NC(=O)C2CCCN(S(=O)(=O)c3cccnc3)C2)CC1 (stereo unspecified),1%
Nc1nc(Nc2ccccc2)nc2c1ncn2[C@@H]1O[C@@H](CO)[C@H](O)[C@H]1O,-1%
CN1CCN(C(=O)c2cnn3c(C(F)(F)F)cc(-c4ccc5c(c4)OCO5)nc23)CC1,1%
CCOC(=O)c1ccc(S(=O)(=O)Nc2cc(C(C)(C)C)no2)cc1,3%
COCCNC(=O)CN(C)S(=O)(=O)c1ccc(Br)cc1,-3%
Cc1ccc(CCN2CC(C(=O)NCCCN3CCN(C)CC3)CC2=O)cc1 (stereo unspecified),21%
Cc1nc2nc(CSc3nc4ccccc4s3)cc(=O)n2[nH]1,-4%
Cc1cnc(CNc2nc(-c3cccnc3)nc3ccccc23)cn1,-8%
CC(C)CCOc1cccc(C2c3c(oc4ccccc4c3=O)C(=O)N2CCCN2CCOCC2)c1 (stereo unspecified),2%
O=C1CCC(C(=O)OCC(=O)C23CC4CC(CC(C4)C2)C3)N1 (stereo unspecified),-2%
CCOC(=O)c1cccc(NC(=O)CCS(=O)(=O)c2cccs2)c1,9%
COc1ccc(CCNC(=O)CCn2c(=O)[nH]c3cc(OC)c(OC)cc3c2=O)cc1OC,?
CC(=O)O[C@H]1C2=CO[C@H](C)[C@H]3[C@H]4C5=C([C@H](O)[C@H]6O[C@@H]6C5=O)[C@H](O[C@H]4C)[C@@]23C(=O)[C@H]2O[C@@H]21,0%[11.4 µM]
CCOc1ccc(CN2CCC(C(=O)N3CCN(c4ccccc4F)CC3)CC2)cc1OC,6%
